# SARS PLpro yeast: blocks SARS-CoV papain-like protease in a yeast assay. S. cerevisiae expressing SARS-CoV PLpro, growth rescue; control for the full effect not named in the record. Potency, µM (highest dose often 32.9 µM), for inactives: top-dose activity, positive = growth rescue. hit rate 0.19% among 330,000; active means well fitted rising curve with a large enough effect; inconclusive means small, poorly fitted or top-dose-only effect; inactive means no such curve, though single readings can be large or run the other way; further: 0% is about no effect; nearly all actives have a fitted effect of over 55% in size; growth read by luminescence after 48 h
# StopGo reporter: lowers the luciferase signal of an FMDV 2A StopGo reporter; Potency, µM (doses to about 57.9 µM), without a hit: top-dose signal change, negative = less light; AID 1159524; hit rate 1.2% among 410,000; human cells with a luciferase reporter of 2A StopGo recoding; control for the full effect not named in the record; active = well fitted falling curve with a large enough effect; inconclusive = small, poorly fitted or top-dose-only effect; inactive = no such curve, though single readings can be large or run the other way; tested in HEK293T cells; further: on the % scale 0 is the no-effect control and ±100 the full control effect; nearly all actives have a fitted effect of over 45% in size; luciferase light after 4 h
# Marburg entry inh: inhibitors of Marburg virus binding or cell entry | Potency, µM (doses to about 37.8 µM), for inactives: at the top dose activity change, negative = inhibition, actives largely listed as inhibitors | Marburg virus pseudotyped entry inhibition, cell reporter; control for the full effect not named in the record; about a third of the inactives were read at about 46 µM | hit rate 1.8% among 300,000; active = well fitted inhibition curve with a large enough effect; inconclusive = small, poorly fitted or top-dose-only effect, or effect the other way; inactive = flat fitted curve, though single readings scatter; tested in HEK293 cells; about a fifth of its hits are not listed in these tables; further: on the % scale 0 is the no-effect control and ±100 the full control effect; luciferase read-out
# RE007 growth inh: less growth of the S. pombe RE007 Vpr strain | S. pombe RE007 Vpr strain, BacTiter-Glo ATP luminescence, 24 h; control for the full effect not named in the record | Potency, µM (highest dose often 92.2 µM), without a hit: at the highest dose activity change, negative = less growth | hit rate 0.21% among 360,000 | AID 651644; active = well fitted falling curve with a large enough effect; inconclusive = small, poorly fitted or top-dose-only effect; inactive = no such curve, though single readings can be large or run the other way;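 further: on the % scale 0 is the no-effect control and ±100 the full control effect; nearly all actives have a fitted effect of over 50% in size; the assay follows cell death caused by Vpr and the record does not say whether a fall means rescue or toxicity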
#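 Fission yeast RE007 carrying one integrated HIV-1 vpr copy, seeded at OD 0.01 in PMG+AL medium with 23 nL pinned compound. Grown 24 h at 30 degrees; viability read by BacTiter-Glo luminescence after 5 min.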
# Cruzain inh Det: cruzain (T. cruzi) inhibition with detergent | purified cruzain, Z-FR-AMC fluorescence, 0.01% Triton | Potency, µM, inactives show max response, negative = inhibition, actives largely listed as inhibitors | hit rate 0.43% among 200,000;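 further: plate controls were neutral wells for no effect and buffer without enzyme for full effect; nearly all actives have a fitted effect of over 40% in size; top concentration of the series not given in the record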
# Target sequence (P25779 123-467 limits assumed): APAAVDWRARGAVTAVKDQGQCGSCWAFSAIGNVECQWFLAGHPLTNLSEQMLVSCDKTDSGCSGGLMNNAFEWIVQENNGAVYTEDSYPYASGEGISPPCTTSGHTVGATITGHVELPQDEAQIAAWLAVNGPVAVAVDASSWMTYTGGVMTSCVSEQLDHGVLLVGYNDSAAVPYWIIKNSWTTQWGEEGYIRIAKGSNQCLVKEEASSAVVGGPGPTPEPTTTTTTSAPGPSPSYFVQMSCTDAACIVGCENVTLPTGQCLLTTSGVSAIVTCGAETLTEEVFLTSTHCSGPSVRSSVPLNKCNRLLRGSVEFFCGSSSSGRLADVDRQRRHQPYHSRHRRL
#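 15 min RT preincubation of 1.5 nM cruzain with compound, then 2 uM Z-FR-AMC added; kinetic AMC fluorescence, 60 s delta. Triton X-100 0.01%, pH 5.5.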
# NS1 function inh: influenza NS1 inhibition | S. cerevisiae slowed by influenza A NS1, growth recovery by OD600 | Potency, µM (top dose mostly 46.1 µM), for the others: at the highest dose activity, positive = more growth | hit rate 0.4% among 270,000; active means well fitted rising curve with a large enough effect; inconclusive means small, poorly fitted or top-dose-only effect; inactive means no such curve, though single readings can be large or run the other way; further: nearly all actives have a fitted effect of over 50% in size
#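 OD600 was taken as the measure of yeast growth restored by compound in an NS1-expressing S. cerevisiae strain. Cells had been washed out of glucose medium and diluted 1:100 into galactose -URA medium, pH 6.0.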
# LASV entry inh: inhibitors of Lassa virus binding or cell entry. hit rate 1.2% among 300,000. Potency, µM (doses to about 37.9 µM), without a hit: top-dose activity change, negative = inhibition, usual class: inhibitors. AID 540256. Lassa virus pseudotype entry inhibition, cell reporter; control for the full effect not named in the record; active means well fitted inhibition curve with a large enough effect; inconclusive means small, poorly fitted or top-dose-only effect, or effect the other way; inactive means flat fitted curve, though single readings scatter; tested in HEK293 cells; further: on the % scale 0 is the no-effect control and ±100 the full control effect; nearly all actives have a fitted effect of over 50% in size; luciferase read-out
# Cruzain noTriton: cruzain (T. cruzi) inhibition without detergent | Potency, µM, for the others: max response, negative = inhibition, usual class: inhibitors | P25779 | hit rate 2.3% among 200,000 | purified cruzain, Z-FR-AMC fluorescence, no detergent | AID 1476;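 further: plate controls were enzyme without inhibitor for no effect and buffer without enzyme for full effect; nearly all actives have a fitted effect of over 40% in size; top concentration of the series not given in the record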
#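 Detergent-free condition (0.00005% Triton X-100) in acetate buffer pH 5.5 with DTT. 1.5 nM enzyme and compound were pre-mixed 15 min, then 2 uM Z-FR-AMC substrate added; reaction progress from fluorescence change between first and third reads (60 s).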
# An asterisk follows results filed as active; ? = inconclusive; · = no result given; & = joins results of further samples; [ ] = another dose, or the depositor's remark. Unless noted, the call rests on the fitted dose curve; in most records, active means well fitted curve in the direction sought with a large enough effect; inconclusive means small, poorly fitted or top-dose-only effect, or another doubt; inactive means no such curve, though single readings can be large; an effect the other way counts as inactive or inconclusive. Potency means the concentration at half of the fitted maximal effect.
SMILES,SARS PLpro yeast,StopGo reporter,Marburg entry inh,RE007 growth inh,Cruzain inh Det,NS1 function inh,LASV entry inh,Cruzain noTriton
Cn1c(CNc2nc(-c3ccccc3)cs2)nnc1SCC(=O)N1CCc2ccccc21,1.3%,-28.1%,-6.1%[46.1 µM],-2.1%,-2.8%,?,12.0%,6.3%
COc1ccc2c(c1)c1c(c(=O)n(-c3ccccc3)c(=O)n1CC(=O)NCc1ccc(C)cc1)n2C,·,-12.5%,·,·,1.8%,·,2.5%[46.1 µM],-7.8%
Cc1ccc(-c2nnn(CC(=O)N(Cc3ccco3)C(C(=O)NC(C)(C)C)c3cccs3)n2)o1 (configuration not stated),-1.9%,-20.5%,?,11.1%,-6.1%,-10.7%,-6.1%,24.0%
O=C(COc1ccccc1-c1ccccc1)Nc1ccc(S(=O)(=O)NCc2ccco2)cc1,11.3%,-16.6%,2.7%,-7.8%,-7.5%,-0.5%,-11.1%,-5.7%
CCOC(=O)Nc1cc(C)c(Cl)cc1OC,-1.2%,-23.9%,-8.0%,-2.1%,1.2%,-2.0%,-19.0%,-0.5%
COc1ccc(/C=C/C(=O)OCC(=O)NC2CCCCC2C)c(OC)c1 (configuration not stated),-8.1%,-16.6%,·,0.4%,·,·,?,·
CSc1ccc(CN(C)CC(=O)NC(C)c2ccccc2)cc1 (configuration not stated),3.5%,0.0%,?,-1.7%,·,·,?,·
COc1ccc(S(=O)(=O)/C(C#N)=C/Nc2ccccc2F)cc1,1.1%,67.1%[activator],·,0.4%,·,4.9%,·,·
Cc1csc(NC(=O)C2CCCCN2S(=O)(=O)c2ccccc2)n1 (configuration not stated),-0.1%,-13.2%,-15.8%,0.1%,·,1.2%,1.2%,·
COc1cc(/C=C/C(=O)OCC(=O)Nc2cc(C)on2)ccc1OCC#N,-1.3%,-2.5%,?,40.9%,·,·,3.7%,·
CCOCCCn1c(=NC(=O)c2cccs2)c(C#N)cc2c(=O)n3ccccc3nc21,1.0%,-6.0%,-6.0%,-18.8%,·,2.0%,-20.4%,·
Cc1ccc(-c2nc(CS(=O)CC(=O)NCc3ccco3)c(C)o2)cc1 (configuration not stated),24.7%,-8.0%,-4.7%[46.1 µM],-8.5%,·,?,-20.7%[46.1 µM],·
O=C(CS(=O)(=O)c1cccc2nsnc12)Nc1ccccc1Cl,·,19.1%,·,·,-3.1%,·,-7.5%[46.1 µM],-4.7%
Cc1cc(/C=N\NC(=O)CC(=O)NC2CCCCC2)c(C)n1-c1cccc(Cl)c1Cl,7.1%,-17.8%,?,·,-5.8%,-4.4%,-17.5%,?
CCCCCC(=O)OC(CN1CCCCC1)CN1CCCC1=O (configuration not stated),10.6%,-12.3%,?,-16.4%,6.1%,?,5.6%,-4.7%
CCOc1ccc(N(C)S(=O)(=O)c2ccc(-c3cc(C)no3)s2)cc1,-2.5%,?,·,8.2%,·,-6.0%,·,·
NC(=O)C1CC(=O)N(c2ccc(OCc3ccccc3Cl)cc2)C1 (configuration not stated),-0.1%,54.6%[activator],17.6%,10.4%,·,0.4%,17.4%,·
CC1=CCC2C(=O)N(c3ccccc3OC(=O)c3ccccc3F)C(=O)C2C1 (configuration not stated),-10.8%,14.2%,?,10.9%,1.9%,-0.8%,7.6%,-5.6%
CN(C)Cc1c(O)ccc2oc(Cc3ccccc3)cc12,2.7%,-24.7%,?,-3.7%,-0.6%,-10.8%,-17.1%,-5.4%
Cc1ccc(S(=O)(=O)NCC(=O)NCC(=O)OC(C(=O)NC(N)=O)C(C)C)cc1C (configuration not stated),0.3%,-4.9%,2.7%,-10.6%,·,-38.2%,·,·
Cc1ccc(-c2nc3cc(Cl)ccc3o2)cc1NC(=O)c1cc2ccccc2o1,·,54.9%[activator],·,·,1.7%,·,23.2%[46.1 µM],8.5%
COc1ccc(Br)cc1/C=C/C(=O)OCC(=O)NCCc1ccc(S(N)(=O)=O)cc1,2.7%,-5.4%,?,-11.2%,·,·,12.9%[46.1 µM],·
COc1cc(C2NC(=O)CCC2[N+](=O)[O-])cc(Br)c1OC (configuration not stated),1.0%,-4.9%,?,9.5%,·,6.0%,-5.5%[46.1 µM],·
COc1ccc(CNCC(O)COc2ccc(C)cc2[N+](=O)[O-])cc1 (configuration not stated),-4.7%,6.4%,·,1.5%,·,-6.2%,·,·
CCOC(=O)c1c(NC(=O)c2cccs2)sc2c1CCN(C(=O)OCC)C2,-1.6%,?,0.1%&0.1%,-17.9%,-3.5%,-58.4%,4.0%,?

# The list goes on:
SMILES,SARS PLpro yeast,StopGo reporter,Marburg entry inh,RE007 growth inh,Cruzain inh Det,NS1 function inh,LASV entry inh,Cruzain noTriton
COc1ccc2c(CC(=O)NC3CCCc4ccccc43)coc2c1 (configuration not stated),?,16.1%,?,11.3%,-3.9%,-4.0%,-4.8%,-16.8%
Cc1cccc(-n2c(-c3csc(C(C)C)c3)n[nH]c2=S)c1,8.7%,-3.5%,-1.6%,3.2%,-14.8%,-39.4%,-7.0%,5.8%
CC(=O)NC(CCS(C)(=O)=O)C(=O)Nc1nc(C)cs1 (configuration not stated),6.1%,·,?,-8.4%,2.7%,10.8%,-1.1%,-10.1%
COc1ccc(/C=C/C(=O)NCc2c(C)nn(C)c2C)cc1COc1ccc(Br)cc1,2.8%,-24.6%,?,5.8%,2.9%,-3.5%,?,?
COc1ccc(CN2CC(C(=O)NCCc3ccc(C)cc3)CC2=O)cc1 (configuration not stated),4.2%,11.5%,24.7%,-16.1%,1.2%,3.7%,-26.6%,12.1%
COc1ccccc1N1CCN(c2ccc(=O)n(CC(=O)O)n2)CC1,·,-9.5%,-0.1%[46.1 µM],·,-2.0%,·,21.8%[46.1 µM],-2.7%
CCN(CC)c1ncnc2c1[nH]c1ccccc12,-4.3%,?,?,-9.9%,-4.1%,0.4%,-7.7%,-4.1%
CCCCn1c(N)c(N(CCOC)C(=O)c2cc(S(=O)(=O)N3CCCCC3)ccc2C)c(=O)[nH]c1=O,·,-12.5%,-11.2%[46.1 µM],-4.2%,·,·,-3.9%,·
CCOc1cc(CNCc2cccs2)ccc1OCC(=O)NC(C)(C)C,17.0%,-14.7%,?,12.5%,0.6%,-0.7%,14.9%,2.2%
O=C(O)c1ccccc1C(=O)c1ccc(Br)s1,19.7%,17.7%,1.5%[46.1 µM],5.7%,·,-2.1%,6.6%,·
O=C(CSc1n[nH]c(=O)n1C1CC1)c1ccc(F)cc1,-0.9%,20.2%,·,2.0%,·,-1.9%,·,·
O=C(Nc1ccc(N2C(=O)C3C4C=CC(C4)C3C2=O)cc1)Nc1cccnc1 (configuration not stated),5.5%,-4.7%,13.9%,-10.6%,1.0%,-0.1%,1.5%,-3.5%
CC1(CCc2ccccc2)NC(=S)N(c2ccc(Cl)cc2)N1 (configuration not stated),-69.5%,14.5%,1.3%,107.0%,-10.2%,-10.1%,?,-12.0%
O=C(O)c1ccccc1COc1ccccc1Cl,-5.2%,·,2.8%,-3.5%,-0.3%,-71.9%,5.5%,-2.3%
O=C(COC(=O)c1ccc(F)cc1)Nc1cc(S(=O)(=O)N2CCOCC2)ccc1N1CCCC1,-0.4%,-4.6%,17.5%[46.1 µM],-15.7%,·,-6.7%,-9.1%,·
COc1ccc(CNC(=O)Cc2ccc(-c3ccccc3)cc2)cc1OC,3.0%,-13.1%,?,-7.5%,·,-7.8%,?,·
COc1ccc(OC)c(CNC(=O)c2c3c(nc4ccccc24)C(=O)N(C2CCCCC2)C3)c1,·,0.0%,·,·,-2.3%,·,-0.8%[46.1 µM],6.6%
CCC1SC2=NC(C)=C(C(=O)OC)C(c3ccc(C(=O)OC)cc3)N2C1=O (configuration not stated),5.3%,-29.9%,-2.0%[46.1 µM],-6.1%,-5.5%,-2.6%,5.9%,4.9%
CCC(=O)N1CCc2cc(Br)cc(S(=O)(=O)CCC(=O)Nc3ccc(C)c(C)c3)c21,·,-3.7%,·,·,-0.7%,·,17.6%[46.1 µM],10.9%
COc1ccc(Cl)cc1C=CC=NNS(=O)(=O)c1ccc(C)cc1,·,-11.4%,-24.5%,0.7%,·,·,-13.0%[46.1 µM],·
COc1cc(CNCCC2CCOC(C)(C)C2)ccc1O (configuration not stated),7.0%,-11.8%,-11.8%[46.1 µM],-0.3%,-1.7%,10.2%,?,11.1%
Cc1cccc(/C(N)=N/OC(=O)c2ccc3c(c2)OCO3)c1,-114.9%,-82.0%,?,35.5µM*,-3.3%,-18.0%,?,-5.8%
O=C(CN1C(=O)NC(Cc2c[nH]c3ccccc23)C1=O)NC1CC1 (configuration not stated),-0.9%,-3.5%,·,-4.0%,·,2.1%,·,·
CCCNC(=O)C1CCN(S(=O)(=O)c2c(C)noc2/C=C\c2ccc(OC)cc2)CC1,3.9%,-25.5%,-2.7%,1.6%,29.8%,-2.5%,·,9.2%
CC(=O)N1c2ccc(S(=O)(=O)NCCC(=O)NC3CCC(C)CC3)cc2CC1C (configuration not stated),-6.3%,-8.1%,·,2.8%,·,3.5%,·,·

# Next structures follow.
SMILES,SARS PLpro yeast,StopGo reporter,Marburg entry inh,RE007 growth inh,Cruzain inh Det,NS1 function inh,LASV entry inh,Cruzain noTriton
COc1ccc2nc(NC(=O)CC3Oc4ccccc4NC3=O)sc2c1 (configuration not stated),0.7%,1.3%,?,-6.3%,·,5.4%,-9.1%,·
CCN(CC(=O)Nc1ccccc1C(F)(F)F)C(=O)c1cccc(N2C(=O)CCC2=O)c1,4.7%,14.0%,3.5%,-11.3%,·,·,-3.9%,·
O=S(=O)(N/N=C\c1c(F)cccc1Cl)c1ccc(Cl)cc1,-6.2%,-4.5%,10.5%,?,-3.0%,-14.0%,-4.8%,-2.5%
O=C(O)CSc1nnc(CNc2ccc(F)cc2)n1-c1ccccc1,-5.4%,0.0%,?,8.0%,·,-4.9%,-20.2%[46.1 µM],·
O=C1CCC(C(=O)Nc2ccccc2N2CCCC2)=NN1,11.2%,-10.3%,11.7%,-0.1%,·,·,13.1%[46.1 µM],·
CCn1ncc(/C=N\NC(=O)COc2cc(C)cc(C)c2)c1C,-6.2%,-14.1%,?,6.7%,0.8%,-13.9%,?,-8.2%
c1ccc(CN2OCC3Cn4c(nc5ccccc54)C32)cc1 (configuration not stated),1.9%,-13.0%,·,3.7%,·,0.0%,·,·
CCc1nn(CC(=O)NCCC(C)C)c(=O)c2cc3occc3n12,·,-11.7%,?,·,-1.7%,·,3.8%[46.1 µM],-9.3%
O=C(CN1CCOCC1)c1ccc(Br)cc1,-3.7%,2.9%,-2.3%[46.1 µM],0.9%,·,-38.0%,-3.6%[46.1 µM],·
CC1(C)Oc2nc3ccccc3n2/C1=C\C#N,-7.5%,-2.4%,4.5%,-22.3%,-4.5%,16.4%,10.9%,-6.2%

# Screening data (PubChem)
